Sa growth inh – inhibitors of Staphylococcus aureus growth at 42 °C; AID 720641; S. aureus RN4220 growth, OD600, 20 h; hits give low values; relative growth, % (concentration not given with the values); 170,000 compounds, 0.53% hits;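 active = growth at 42 °C up to 50% and 20 or more points under that at 30 °C, or under 10% at both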;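 note: 300 nL library stock went into each well; scaled to the means of positive and negative controls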
HCMV NEC inh – inhibitors of HCMV UL50-UL53 nuclear egress complex interaction; HTRF UL50-UL53 interaction, normalized percent inhibition; inhibition, % (test concentration not listed); 190,000 compounds, 0.15% hits;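 active = both replicates at 50% or more, plus weaker picks with an unusually low signal ratio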;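 note: stock transfer was 100 nL into about 20 µL; 0% = negative control wells and 100% = wells with untagged competitor protein; inactives centre near -12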
GIV-Gai inh – blocks GIV peptide binding to rat Galpha-i3; P08753; Galpha-i3/FITC-GIV peptide fluorescence polarization, 90 min; hits give low values; scaled: aluminum fluoride 0%, vehicle 100%; percent of control (FP), % (test concentration not listed); 210,000 compounds, 0.42% hits; AID 1224905;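 active = replicate mean at 85% of control or lower, very high polarization wells dropped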;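 note: wells of about 15 µL received 100 nL stock; the first replicate is given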
Target sequence (P08753 whole entry, looked up): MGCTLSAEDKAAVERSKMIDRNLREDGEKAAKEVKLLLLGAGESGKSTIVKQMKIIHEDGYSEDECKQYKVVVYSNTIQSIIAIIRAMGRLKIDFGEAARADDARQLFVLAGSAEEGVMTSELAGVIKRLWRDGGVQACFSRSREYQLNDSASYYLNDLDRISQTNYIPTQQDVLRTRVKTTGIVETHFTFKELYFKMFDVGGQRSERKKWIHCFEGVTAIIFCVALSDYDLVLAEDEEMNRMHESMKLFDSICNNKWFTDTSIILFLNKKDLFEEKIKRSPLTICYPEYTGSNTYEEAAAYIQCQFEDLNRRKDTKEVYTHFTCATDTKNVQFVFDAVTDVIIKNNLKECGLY
Sa growth inh second temp – second read-out of Sa growth inh, no call of its own (marks repeat the call); relative growth, %; measured here: growth at 30 °C;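 optical density after 20 h as mean of two plates; 100% = untreated growth and lower means inhibition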
Numbers without * were called inactive; · = not tested or not shown.

1: N=c1c2c3c(sc2ncn1Cc1ccccc1)CCCC3
2: O=C(N/N=C/c1ccco1)c1cc(C23CC4CC(CC(C4)C2)C3)[nH]n1
3: CCc1ccc(N(CC)C(=O)c2cc3c(=O)n(CC)c4ccccc4c3s2)cc1
4: CCOc1cc(OCC)c(/C=N/O)c(OCC)c1
5: Cc1cccc2cc(C#N)c(SCCN3CCCCC3)nc12

entry no.,1,2,3,4,5
Sa growth inh,92,78,105,98,75
Sa growth inh second temp,79,55,97,88,81
HCMV NEC inh,-22,-29,·,4,-2
GIV-Gai inh,103,103,98,105,112

6: CCc1cccc(NC(=O)C(Cc2ccccc2)NC(=O)C2CCC(C)CC2)c1 (stereo not drawn)
7: COc1ccc(S(=O)(=O)N2CCCCC2c2cccnc2)cc1 (stereo not drawn)
8: O=C1Nc2ccccc2C12OC1CCCCC1O2 (stereo not drawn)
9: CC(C)Cn1c(NN)nc2c1c(=O)[nH]c(=O)n2C
10: Cc1cccc2nc(-c3cccc(NS(=O)(=O)c4ccccc4)c3)cn12

entry no.,6,7,8,9,10
Sa growth inh,106,100,107,55,116
Sa growth inh second temp,91,84,102,57,113
HCMV NEC inh,·,-20,-8,-43,-27
GIV-Gai inh,101,102,118,·,99

11: O=C(CCn1c(=O)c2cccn2c2cccnc21)NCc1ccc(Cl)cc1
12: CN(C)C(=O)CCSc1ccc(Cl)cc1
13: Cc1nc2nc(NC(=O)c3ccccc3F)[nH]n2c(=O)c1Cl
14: Cc1oc(-c2ccc(C(=O)NC(C)C)cc2)nc1COc1ccccc1
15: COc1ccc(CCNC(=S)N(Cc2ccco2)Cc2cc3cc(OC)c(OC)cc3[nH]c2=O)cc1OC

entry no.,11,12,13,14,15
Sa growth inh,110,102,109,99,121
Sa growth inh second temp,88,86,90,97,89
HCMV NEC inh,·,-3,-8,7,4
GIV-Gai inh,103,·,102,104,98

16: O=C(CC(c1ccccc1)C1C(=O)NC(=S)NC1=O)c1cccs1 (stereo not drawn)
17: Cc1ccc(C(=O)CSc2nc3cc(C(=O)NC(C)C)ccc3c(=O)n2CC2CCCO2)c(C)c1 (stereo not drawn)
18: CCN1C(=O)CCc2cc(NS(=O)(=O)c3ccc(C(C)C)cc3)ccc21
19: Cc1oc(S(=O)(=O)N2CCCC2)cc1C(=O)NCc1ccc2c(c1)OCO2
20: CCOC(=O)c1c(N)n(C(C)c2ccccc2)c2nc3ccccc3nc12 (stereo not drawn)

entry no.,16,17,18,19,20
Sa growth inh,95,·,·,94,96
Sa growth inh second temp,82,·,·,84,92
HCMV NEC inh,-17,4,-33,-27,-6
GIV-Gai inh,·,112,106,102,·

21: CC1=C(C(=O)Nc2ccccc2)C(c2ccncc2)n2nc(SCc3ccccc3F)nc2N1 (stereo not drawn)
22: CN1CCN(c2ccc(NS(=O)(=O)c3ccc(F)cc3)cc2C(=O)O)CC1
23: Cc1ccc(N2CC(NC(=O)c3cc4ccccc4o3)CC2=O)cc1C (stereo not drawn)
24: CCN(CC)CCCNC(=O)Cn1cnc2oc(C)c(C)c2c1=O
25: CCS(=O)(=O)N1CCCC(C(=O)NCc2cccnc2)C1 (stereo not drawn)

entry no.,21,22,23,24,25
Sa growth inh,110,·,117,·,85
Sa growth inh second temp,107,·,74,·,85
HCMV NEC inh,-32,-28,·,-10,·
GIV-Gai inh,99,104,101,100,104

26: O=c1c2cc3c(cc2nc2sc(Nc4ccccc4)nn12)OCO3
27: COc1cc(C2C3=C(CC(c4ccco4)CC3=O)Nc3ccccc3N2C(=O)C2CC2)cc(OC)c1OC (stereo not drawn)
28: CC(C)CCNC(=O)CCCCn1c(=O)c2ccccc2n(CC(=O)Nc2cccc(F)c2)c1=O
29: COc1ccc(CCNC(=O)c2c3c(nc4ccccc24)C(=O)N(C2CCCCC2)C3)cc1OC
30: Cc1nn(-c2ccccc2)c2sc(C(=O)Nc3cccc(Br)c3)cc12

entry no.,26,27,28,29,30
Sa growth inh,100,86,·,91,106
Sa growth inh second temp,92,83,·,87,92
HCMV NEC inh,-4,-34,-20,·,1
GIV-Gai inh,101,107,102,99,107

Part of the list above with just Sa growth inh second temp and HCMV NEC inh:
# | SMILES | Sa growth inh second temp | HCMV NEC inh
26 | O=c1c2cc3c(cc2nc2sc(Nc4ccccc4)nn12)OCO3 | 92 | -4
27 | COc1cc(C2C3=C(CC(c4ccco4)CC3=O)Nc3ccccc3N2C(=O)C2CC2)cc(OC)c1OC (stereo not drawn) | 83 | -34

One compound at a time (already shown). Screens in order: Sa growth inh | Sa growth inh second temp | HCMV NEC inh | GIV-Gai inh
Shown for `CC(C)CCNC(=O)CCCCn1c(=O)c2ccccc2n(CC(=O)Nc2cccc(F)c2)c1=O` = · | · | -20 | 102
Shown for `O=c1c2cc3c(cc2nc2sc(Nc4ccccc4)nn12)OCO3` = 100 | 92 | -4 | 101
Shown for `COc1cc(C2C3=C(CC(c4ccco4)CC3=O)Nc3ccccc3N2C(=O)C2CC2)cc(OC)c1OC` (stereo not drawn) = 86 | 83 | -34 | 107

(list continues)
31: O=C(Cn1c(=O)nc(-c2ccccc2)c2cc(Cl)ccc21)Nc1ccc2c(c1)OCO2
32: O=c1[nH]c(=O)n(C2CC(O)C(CO)O2)cc1I (stereo not drawn)
33: CC12CC3CC(C)(C1)CC(C(=O)Nc1ccc4c(c1)OCO4)(C3)C2
34: Cc1ccccc1OCc1nc2c3cnn(-c4cccc(F)c4)c3ncn2n1
35: c1ccc2c(c1)COC(CN1CCCCC1)OC2

entry no.,31,32,33,34,35
Sa growth inh,·,·,121,110,106
Sa growth inh second temp,·,·,94,91,78
HCMV NEC inh,-20,9,-34,-5,·
GIV-Gai inh,108,98,·,98,104

36: CC(C)(C)CC(C)(C)NS(=O)(=O)Cc1ccccc1
37: COc1ccccc1Nc1nn2c(=O)c3ccc(C(=O)NCCC4=CCCCC4)cc3nc2s1
38: CSc1cccc(NC(=O)c2ccccc2F)c1
39: C=CCn1c(COc2ccc(CC)cc2)nnc1SC/C(O)=C(\C#N)c1nc2ccccc2[nH]1
40: Cc1nn(-c2ccccc2)c(Cl)c1C(=O)NCC1CCCO1 (stereo not drawn)

entry no.,36,37,38,39,40
Sa growth inh,104,138,110,107,107
Sa growth inh second temp,88,84,93,97,90
HCMV NEC inh,-5,·,2,-2,-15
GIV-Gai inh,110,103,102,·,·

41: Cc1ccc2c(c1)C=C(C(=O)Nc1ccc(Br)cc1)C=CO2
42: COC(=O)c1ccccc1NC(=S)OC
43: CC(=O)c1cccc(NS(=O)(=O)c2cc3c(cc2C)N(C(C)=O)CCO3)c1
44: Cc1ccc(SCc2cccc(C(=O)N3CCN(c4ncccc4C(F)(F)F)CC3)c2)cc1
45: COc1ccc(NC(=O)CCc2c(C)nc3c(c2C)c(=O)n(C)c(=O)n3C)cc1OC

entry no.,41,42,43,44,45
Sa growth inh,·,76,120,88,100
Sa growth inh second temp,·,76,81,87,90
HCMV NEC inh,-21,-22,·,-42,-40
GIV-Gai inh,100,101,104,100,103

46: COc1cccc(-c2cc(C(=O)NCc3ccc(F)cc3)c3ccccc3n2)c1
47: O=C(c1cc(C(F)(F)F)cc(C(F)(F)F)c1)N1CCC(O)(c2ccc(Cl)cc2)CC1
48: O=C(COc1ccc(-c2ccccc2)cc1)NCCN1CCOCC1
49: CN/N=C/c1cc(OC)c(O)c(OC)c1
50: Cc1sc2ncnc(Oc3cccc(C(F)(F)F)c3)c2c1-c1ccccc1

entry no.,46,47,48,49,50
Sa growth inh,·,107,113,74,73
Sa growth inh second temp,·,88,96,89,103
HCMV NEC inh,-22,-27,-18,-31,·
GIV-Gai inh,104,100,·,·,111

51: COc1ccc(NC(=O)CSc2nnc(-c3nonc3NC(C)=O)n2-c2ccccc2)cc1
52: Fc1ccc2[nH]cc(CCCN3CCN(c4nc5cc(Cl)ccc5s4)CC3)c2c1
53: CCOC(=O)N1CCN(c2cc(NCCCC(=O)O)c3c4c(onc24)-c2ccccc2C3=O)CC1
54: N#CC(c1ccccc1Cl)N1CCOCC1 (stereo not drawn)
55: Cc1ccccc1OCCCCS

entry no.,51,52,53,54,55
Sa growth inh,102,100,101,·,76
Sa growth inh second temp,85,93,69,·,74
HCMV NEC inh,-40,-18,-210,-7,8
GIV-Gai inh,101,108,-74*,101,98

56: O=C(O)c1cccc(O)c1
57: O=C(CCc1ccccc1)NCc1ccc2c(c1)CCN2C(=O)c1ccc(Cl)cc1
58: CCOC(=O)C1C(=O)C=C(Nc2ccc(Br)cn2)CC1c1cccc(OC)c1 (stereo not drawn)
59: Cc1cc(=O)oc2cc(OCC(=O)NCc3cccnc3)ccc12
60: Cc1ccc(NC(=O)c2cccc(NC(=O)N3CCSc4ncccc43)c2)cc1F

entry no.,56,57,58,59,60
Sa growth inh,98,121,99,107,108
Sa growth inh second temp,88,91,81,82,88
HCMV NEC inh,-24,·,4,·,·
GIV-Gai inh,·,104,102,102,109

61: CCOC(=O)c1noc2ncnc(N(CC)c3ccccc3)c12
62: CN(C)c1nc(-c2ccccc2)nc(-c2ccccc2)c1C#N
63: CCC(Sc1nnc2c3ccccc3n(CC)c2n1)C(=O)Nc1ccc(S(N)(=O)=O)cc1 (stereo not drawn)
64: CC1CCN(S(=O)(=O)c2ccc3c(c2)N(CC(=O)NCc2ccccc2Cl)C(=O)CO3)CC1
65: Cc1cc(C)nc(SC(C)C(=O)Nc2ccc(S(N)(=O)=O)cc2)n1 (stereo not drawn)

entry no.,61,62,63,64,65
Sa growth inh,99,93,102,103,112
Sa growth inh second temp,88,86,93,96,95
HCMV NEC inh,-26,-15,-6,29,-16
GIV-Gai inh,105,100,110,112,99

66: Clc1ccc(-c2ccnc3nncn23)cc1
67: Cc1cc(NC(=O)C2C3C(=O)N(c4ccccc4Cl)C(C(=O)NC(C)(C)C)C34C=CC2(C)O4)no1 (stereo not drawn)
68: Cn1c(=O)c2c(nc(SCC(=O)Nc3ccccc3)n2Cc2ccccc2F)n(C)c1=O
69: CC1OC(NC(=O)c2ccccc2F)C(NC(=O)c2ccccc2F)OC1C (stereo not drawn)
70: Cc1nnc(-c2ccc(S(=O)(=O)N3CCC4(CC3)OCCO4)s2)o1

entry no.,66,67,68,69,70
Sa growth inh,97,78,99,97,·
Sa growth inh second temp,93,103,89,111,·
HCMV NEC inh,-38,7,-11,-8,-59
GIV-Gai inh,107,103,105,·,107

71: Cc1nnc(N2CCCC(C(=O)NCC3CCCO3)C2)c2nn(-c3ccc(Cl)cc3)c(C)c12 (stereo not drawn)
72: COc1ccc(-c2cc3c(=O)n(CC(=O)Nc4ccc(C)c(Cl)c4)ncn3n2)cc1
73: O=C(Nc1cc(-c2nc3ccccc3o2)ccc1Cl)c1ccc(Br)o1
74: Cc1n[nH]c(C)c1C12CC3CC(CC(CC(=O)O)(C3)C1)C2
75: O=C(COc1ccc(Cl)cc1)Nc1ccc(N2CCCS2(=O)=O)cc1

entry no.,71,72,73,74,75
Sa growth inh,·,·,89,105,·
Sa growth inh second temp,·,·,87,96,·
HCMV NEC inh,4,-15,-55,-8,-26
GIV-Gai inh,100,104,69*,101,97

76: CNC(=O)COc1ccc(-c2nn(C)c(=O)c3ccccc23)cc1
77: O=C1CC(C(=O)N2CCc3ccccc32)CN1c1cccc(-c2noc(C3CCC3)n2)c1 (stereo not drawn)
78: CSc1nc(N)nc(CSc2ccccc2)n1
79: Cc1sc2ncc(C(=O)NC(C)C)c(=O)n2c1C
80: O=C(NCCc1ccccc1)C1(c2cccs2)CCOCC1

entry no.,76,77,78,79,80
Sa growth inh,82,·,98,·,100
Sa growth inh second temp,82,·,111,·,89
HCMV NEC inh,·,-34,0,-25,·
GIV-Gai inh,111,104,98,111,100

Sorted by value in GIV-Gai inh (lowest first): 3 of the compounds above
cpd | mol | GIV-Gai inh
24 | CCN(CC)CCCNC(=O)Cn1cnc2oc(C)c(C)c2c1=O | 100
7 | COc1ccc(S(=O)(=O)N2CCCCC2c2cccnc2)cc1 (stereo not drawn) | 102
4 | CCOc1cc(OCC)c(/C=N/O)c(OCC)c1 | 105

Continued:
81: Cc1cc(C(F)(F)F)nn1Cc1ccc(C(=O)NCc2ccco2)o1
82: CSC(SC)=C(C#N)C(=O)c1ccoc1C
83: COc1ccccc1C1(CC(=O)O)CCOC(C(C)C)C1 (stereo not drawn)
84: CCOc1ccccc1-c1noc(CCCn2c(=O)[nH]c3cc4c(cc3c2=O)OCO4)n1
85: COc1cccc(C(=O)N(Cc2cccnc2)Cc2cc3cc(C)cc(C)c3[nH]c2=O)c1
86: Cc1c(CN2CCCCC2)c(O)n(CCO)c(=O)c1C#N

entry no.,81,82,83,84,85,86
Sa growth inh,85,108,126,·,104,102
Sa growth inh second temp,78,98,107,·,77,78
HCMV NEC inh,·,7,-16,9,-10,-8
GIV-Gai inh,102,107,103,112,103,100
